StopGo reporter = High Throughput Screening for Foot and Mouth Disease Virus Antivirals. human cells with a luciferase reporter of 2A StopGo recoding; control for the full effect not named in the record. Potency, µM (highest dose often 57.9 µM), for inactives: at the top dose signal change, negative = less light. 410,000 compounds, 1.2% hits; active = well fitted falling curve with a large enough effect; inconclusive = small, poorly fitted or top-dose-only effect; inactive = no such curve, though single readings can be large or run the other way; tested in HEK293T cells; further: nearly all actives have a fitted effect of over 45% in size; luciferase light after 4 h
RE007 growth inh = qHTS Assay for Inhibitors of the HIV-1 protein Vpr; 360,000 compounds, 0.21% hits; Potency, µM (top dose mostly 92.2 µM), for the others: at the top dose activity change, negative = less growth; S. pombe RE007 Vpr strain, BacTiter-Glo ATP luminescence, 24 h; control for the full effect not named in the record; active = well fitted falling curve with a large enough effect; inconclusive = small, poorly fitted or top-dose-only effect; inactive = no such curve, though single readings can be large or run the other way;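 further: nearly all actives have a fitted effect of over 50% in size; the assay follows cell death caused by Vpr and the record does not say whether a fall means rescue or toxicity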
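Fission yeast strain RE007, carrying one chromosomally integrated HIV-1 vpr copy, was seeded at OD 0.01 in PMG+AL medium with 23 nL pinned compound. After 24 h at 30 °C and 99% humidity, viability was read by BacTiter-Glo luminescence.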
Numbers without * were called inactive; ? = inconclusive; [ ] = another dose, or the depositor's remark. On the % scale 0 is the no-effect control and ±100 the full control effect; potency means the concentration at half of the fitted maximal effect.

SMILES | StopGo reporter | RE007 growth inh
CC1=C(C(=O)N2CCOCC2)CC(CC(=O)NCCc2ccccn2)C(=O)N1Cc1ccc(F)cc1 (stereo not drawn) | -9% | 33%
O=C(NC1CCCC1)C1C(c2ccc(C(F)(F)F)cc2)=Nc2ccccc2N1C(=O)c1cc2ccccc2[nH]1 (stereo not drawn) | 14% | -21%
CN(CCOc1ccccc1)Cc1ccccc1 | -14% | -1%
COC1=CC(=O)OC(c2cccc(Cl)c2)C1 (stereo not drawn) | -13% | 6%
O=C(NCc1ccccc1)C1c2ccccc2OCC(=O)N1Cc1ccccc1 (stereo not drawn) | -12% | -5%
CCCCNC(=O)C1C(c2ccc(C(F)(F)F)cc2)=Nc2ccccc2N1C(=O)C1CCN(C(C)=O)CC1 (stereo not drawn) | -2% | 32%
CO[C@H]1CN(C)C(=O)c2ccc(NC(=O)C3CCC3)cc2OC[C@H](C)N(CC2CCCCC2)C[C@@H]1C | -19% | 11%
O=S1(=O)N[C@@H](Cc2ccccc2)COc2cc(N3CCN(Cc4ccccc4F)CC3)ccc21 | -10% | -15%
C[C@@H]1CN([C@@H](C)CO)C(=O)CCCn2nncc2CO[C@@H]1CN(C)S(=O)(=O)c1ccc(-c2ccccc2)cc1 | -5% | 0%
OCCN1CCN(c2ncnc3c2ncn3[C@H]2CN(Cc3cccc(C(F)(F)F)c3)C[C@@H](CO)O2)CC1 | -1% | -11%
C=C(C)Cn1c2ccc(NC(=O)CCOCC)cc2c(=O)n1C | -10% | 1%[18.4 µM]
CCc1nc2ccc(C(=O)NCCCN3CCCC3=O)cn2c1N(CC)Cc1cccc(Br)c1 | -20% | -26%
CCCCNC(=O)C1(C)CCCCN1C(=O)c1cc(-c2ccccc2)cs1 (stereo not drawn) | -21% | 3%
CN1CCC(N2CCN(C3CN(Cc4cn(Cc5ccc(F)cc5)nn4)S(=O)(=O)C3)CC2)CC1 (stereo not drawn) | -25% | -8%
CC(=O)Nc1cc(-c2cccnc2)cn2c(-c3cccc(C(F)(F)F)c3)cnc12 | -12% | 10%
Cc1ccc(Cl)cc1-c1cc(C(=O)NCc2ccco2)[nH]n1 | -10% | 3%
CCN(CC)C(=O)C1=C(C)N(CCCN2CCCC2=O)C(=O)C(CC(=O)NC2CC2)C1 (stereo not drawn) | -23% | 2%
CCCCC(=O)N(C)c1c(CC)nc2c(OCC(=O)c3ccc(F)cc3)cccn12 | -7% | -20%
CC(C)(O)[C@@H]1[C@@H]2C[C@@]3(CC[C@]4(C)C(CCC5[C@@]6(C)CC[C@H](O)C(C)(C)C6CC[C@]54C)[C@@H]13)C(=O)O2 (stereo partly drawn) | -10% | -3%
CC(C)NC(=O)C1C(c2ccccc2)=Nc2ccccc2N1C(=O)c1ccc(C(F)(F)F)cc1 (stereo not drawn) | 9% | -13%
CCOC1=C2CN(S(=O)(=O)c3ccc(C)cc3)[C@H](c3cccc(Cl)c3)C[C@H]2[C@H]2C(=O)N(c3ccccc3)C(=O)[C@H]2C1 | -23% | -1%
COc1ccc(-n2sc3ccccc3c2=O)cc1 | ? | -87%
CCn1cc(/C=C(\NC(=O)c2ccccc2OC)C(=O)N2CCOCC2)c2ccccc21 | 17% | -10%
CC(C)C[C@@H](CN1CCC[C@H]1CN1C(=O)C(=O)NC[C@@H]1Cc1ccc(O)cc1)N1C[C@H](Cc2ccc(O)cc2)N(CC2CCCCCC2)C(=O)C1=O | -2% | -10%
C#CCNC(=O)C[C@@H]1C[C@@]2(C(=O)OCC)CCC=C2N(Cc2ccc3c(c2)OCO3)C1=O | -16% | 3%
Going on with the list:
SMILES | StopGo reporter | RE007 growth inh
CC1(c2nnnn2Cc2ccccc2)CCC(=O)N1Cc1cccnc1 (stereo not drawn) | -22% | 3%
COc1ccc(Cc2c(-c3ccccc3)nc3cc(C)c(Br)c(C)n23)c(C)c1 | -22% | -6%
O=C1N2CCCCC1(Sc1ccccc1)CCC2 (stereo not drawn) | -10% | 11%
O=C(O)c1cccc2c1C(=O)c1ccc(N3CCN(Cc4ccc5c(c4)OCO5)CC3)cc1S2(=O)=O | -15% | -10%
COc1ccc(CCNC(=O)COC(=O)C2=NNC(=O)CC2)cc1 | -3% | 9%
COC(=O)c1c[n+]([O-])ccc1OC | -13% | 6%
CCOC(=O)c1cc(-c2ccc(N3C(c4ccsc4)=Cc4ccccc4C3CC(C)=O)cc2)cc([N+](=O)[O-])c1 (stereo not drawn) | -8% | 13%
CCc1nc2ccc(C(=O)NCCc3ccccn3)cn2c1N(CC)CCOC | -25% | -24%
CC(C)CN1Cc2cc(-c3ccccc3)ccc2-n2nncc2C1 | 0% | -26%
CC(C)(C)OC(=O)N1CCC(NC(=O)c2[nH]cnc2C(=O)Nc2ccc(Br)cc2F)CC1 | ? | -4%
CCCCN1C(=O)C(CC(=O)NCC2CCCCC2)CC(C(=O)N2CCOCC2)=C1C (stereo not drawn) | -7% | 2%
COCC(=O)Nc1c(I)c(C(=O)NCC(O)CO)c(I)c(C(=O)N(C)CC(O)CO)c1I (stereo not drawn) | -17% | 7%[18.4 µM]
Nc1ncnc2c1ncn2[C@@H]1O[C@H](C(=O)N[C@@H](CO)Cc2ccccc2)[C@@H](O)[C@H]1O | -18% | 3%
CC(C)C[C@H]1CNC(=S)N1C[C@H]1CCCN1C[C@H](Cc1ccccc1)N1C[C@H](Cc2ccc(O)cc2)N(CC2CCCCCC2)C1=S | -22% | -10%
CC(=O)NCCNc1nc2cc(-c3cscc3C)sc2c(=O)n1C | -1% | -2%
CC(C)Nc1nc(Nc2ccc(F)cc2)c2sccc2n1 | -28% | -5%
C[C@@H]1CN([C@@H](C)CO)C(=O)CCCn2nncc2CO[C@H]1CN(C)C(=O)Nc1cccc2ccccc12 | -13% | -1%
CCOC(=O)[C@]12CCCC=C1N(Cc1ccccc1)C(=O)[C@H](CC(=O)NCc1cccc3ccccc13)C2 | -19% | 12%
O=C1C=C(c2n[nH]nc2-c2ccccc2)C[C@@H](c2ccc(F)cc2)C1 | ? | -10%
CC(=O)Nc1ccc(CNc2nc3cc(-c4ccccc4C)sc3c(=O)n2C)cc1 | -23% | -12%[18.4 µM]
COCCCN1C(=O)C(CC(=O)NCCCCc2ccccc2)CC(C(=O)N(C(C)C)C(C)C)=C1C (stereo not drawn) | -4% | 6%
Cc1ccc(Cc2c(-c3ccco3)nc3ccc(Br)cn23)cc1 | 0% | -15%
CCOC(=O)C1=CCN(S(=O)(=O)c2ccc(F)cc2)C1c1ccc(Br)cc1 (stereo not drawn) | ? | 1%
Cc1cccc(N2CCN(C(=O)COc3noc4nc(C)cc(C)c34)CC2C)c1 (stereo not drawn) | ? | -7%
O=C(COC(=O)C1CC(=O)N(Cc2ccccc2)C1)Nc1ccc([N+](=O)[O-])cc1Br (stereo not drawn) | -9% | 7%

Compound profiles, from the list above. Order of values: StopGo reporter	RE007 growth inh
CCc1nc2ccc(C(=O)NCCc3ccccn3)cn2c1N(CC)CCOC reads -25%	-24%
CC(C)(C)OC(=O)N1CCC(NC(=O)c2[nH]cnc2C(=O)Nc2ccc(Br)cc2F)CC1 reads ?	-4%
COCC(=O)Nc1c(I)c(C(=O)NCC(O)CO)c(I)c(C(=O)N(C)CC(O)CO)c1I (stereo not drawn) reads -17%	7%[18.4 µM]
Cc1ccc(Cc2c(-c3ccco3)nc3ccc(Br)cn23)cc1 reads 0%	-15%

5 compounds picked at random from the list so far:
SMILES | StopGo reporter | RE007 growth inh
CC(=O)NCCNc1nc2cc(-c3cscc3C)sc2c(=O)n1C | -1% | -2%
O=C1C=C(c2n[nH]nc2-c2ccccc2)C[C@@H](c2ccc(F)cc2)C1 | ? | -10%
COc1ccc(CCNC(=O)COC(=O)C2=NNC(=O)CC2)cc1 | -3% | 9%
CCOC(=O)[C@]12CCCC=C1N(Cc1ccccc1)C(=O)[C@H](CC(=O)NCc1cccc3ccccc13)C2 | -19% | 12%
COC(=O)c1c[n+]([O-])ccc1OC | -13% | 6%

(list continues)
SMILES | StopGo reporter | RE007 growth inh
CN1OC[C@@H]2CN(Cc3ccccc3)[C@H](c3ccc(-n4ccnc4)cc3)C[C@@H]21 | -1% | -26%
COc1ccccc1-c1cnc(C(O)c2ccc(Cl)cc2)[nH]1 (stereo not drawn) | 0% | ?
COc1ccc(C)cc1N1CC(C(=O)Nc2cccc(C(=O)NC3CC3)c2)CC1=O (stereo not drawn) | 0% | -5%
NC(=O)c1ncn([C@@H]2O[C@H](CNC(=O)[C@@H](N)Cc3cccnc3)[C@@H](O)[C@H]2O)n1 | -5% | 1%
CN(C)C(=O)c1cccc(-c2cnc3c(NC=O)cc(-c4cccc(C(F)(F)F)c4)cn23)c1 | 32µM* | 2%
COc1cc2c(cc1[N+](=O)[O-])-c1ccc([N+](=O)[O-])cc1C2=NO | -22% | -21%
CC1(C(=O)NCc2cccc3ccccc23)CCN1CCc1ccccc1 (stereo not drawn) | 0% | -5%
CC(C)NC(=O)C1(C)CN(S(C)(=O)=O)CC(=O)N1Cc1cccc(C(F)(F)F)c1 (stereo not drawn) | -7% | 24%
Cc1ccc(S(=O)(=O)N(C)c2ccc(OC(=O)CN3C(=O)NC(C)(c4ccccc4)C3=O)cc2)cc1C (stereo not drawn) | -10% | -3%
Cc1[nH][nH]c(=O)c1N=Nc1ccc(S(N)(=O)=O)cc1 | 14% | -10%
COc1ccc(C(=O)N2C=Cc3ccccc3C2C(N)=O)cc1 (stereo not drawn) | -9% | -25%
Cc1c(C(=O)NCc2ccc3c(c2)OCCO3)sc(=O)n1Cc1ccc2c(c1)OCO2 | -13% | 0%[18.4 µM]
C#CCNC(=O)C[C@@H]1C[C@@]2(C(=O)OC)CC(C)(C)CC=C2N(Cc2cccc3ccccc23)C1=O | -23% | -12%
CCCCCCCCN1C(=O)[C@H](CC(=O)N2CCN(C(=O)OCC)CC2)C[C@@]2(C(=O)OC)CC(C)(C)CC=C12 | ? | 6%
Cc1ccc(C2=CC(c3ccc(C)cc3)n3ncnc3N2)cc1 (stereo not drawn) | 8% | -24%
Cc1noc(C)c1-c1ccc(C(=O)Nc2cccc(C(F)(F)F)c2)c2occc12 | 6% | -2%[18.4 µM]
OC(c1cc(Cl)cc(Cl)c1)c1ncc(-c2ccccc2C(F)(F)F)[nH]1 (stereo not drawn) | 0% | -18%
CC(NCCCSc1ccccc1)C(O)c1ccc(O)cc1 (stereo not drawn) | -8% | 2%
COCCn1c(SCC(=O)N2CCCC2)nc2c(c1=O)SCC2 | -19% | 5%
CC1CCc2sc(C(=O)NN=C3CCCC3)cc2C1 (stereo not drawn) | 59%[activator] | 2%
COc1ccc2c(c1)CCCO[C@]21O[C@H](CCO)C[C@H](O)[C@H]1O | -17% | 14%
OC[C@@H]1CN(Cc2cccs2)C[C@H](n2cnc3c(NCc4ccco4)ncnc32)O1 | -17% | 10%
CCN(C)C1CN(Cc2cn(Cc3cccc(Cl)c3)nn2)S(=O)(=O)C1 (stereo not drawn) | -18% | -12%
CN(C/C=C/c1ccccc1)Cc1cccc2ccccc12 | -23% | -11%
CN(Cc1ccc(Cl)cc1Cl)C(=O)C1CSC2(C)CCC(=O)N12 (stereo not drawn) | ? | 2%
More structures follow.
SMILES | StopGo reporter | RE007 growth inh
CC(C)Cc1ccc(CN2C(C)C(=O)N(Cc3cn(Cc4ccco4)nn3)CCS2(=O)=O)cc1 (stereo not drawn) | -20% | -11%
O=C1NC[C@@H](CCCCN2CCN(Cc3ccccc3)C(=O)C2=O)N(Cc2ccccc2)C1=O | 6% | 11%
O=S1(=O)CC(N2CC=CC2)CN1Cc1cn(Cc2ccc(F)cc2)nn1 (stereo not drawn) | -2% | 1%
c1ccc(OCCNc2nc(NCC3CC3)nc3ccsc23)cc1 | ? | -16%[18.4 µM]
N#Cc1ccc(NC(=O)COC(=O)c2cccc(S(=O)(=O)N3CCCC3)c2)cc1 | -14% | 1%
CC1(Oc2ccc(Cl)cc2)CCN(Cc2ccc(OC(F)(F)F)cc2)C1 (stereo not drawn) | 34%[activator] | -26%
COC(=O)N(C)C[C@@H]1OCc2cnnn2CCCC(=O)N([C@@H](C)CO)C[C@@H]1C | -9% | -6%
Cc1cc(NC(=O)COC(=O)COc2ccc(Cl)c(C)c2)no1 | -12% | 8%
CCc1nc2ccc(C(=O)Nc3cccc(NS(C)(=O)=O)c3)cn2c1N(C=O)CCC(C)C | -11% | -10%
COc1ccc(C(C(=O)NCc2ccccc2)n2c(-c3ccncc3)nc3ccccc32)cc1 (stereo not drawn) | 17% | 3%
CCCCC[C@@H](C)N1C[C@H](COCc2ccccc2)Oc2cc(N3CC[C@H](O)C3)ccc2S1(=O)=O | -6% | 1%
Cc1ccc(OCCCC(=O)N(C)CC(=O)Nc2c(C)cccc2C)cc1 | -15% | 4%
COc1ccc(C(=O)NCCCNc2nc3cc(C)cc(C)c3cc2C#N)cc1 | -16% | 6%
O=C(c1cccs1)N1C[C@@H](n2cc(C3CC3)nn2)[C@H](O)C[C@@H]1c1ccc(Cl)cc1 | -13% | 6%
CC1(C(=O)Nc2ccc3c(c2)OCO3)Cc2c(-c3ccccc3)ccnc2O1 (stereo not drawn) | -9% | 6%
CCOC(=O)C1=CCC2C(=O)N(C)C(=O)C12 (stereo not drawn) | -3% | -4%
Cc1ccc(Cc2c(-c3cccc(Br)c3)nc3ccc(Br)cn23)cc1 | 27% | -20%

The list is partial; the hit share may differ from the screen's.
